# Assay outcomes from PubChem.
# NPYLR7 ag = activates Aedes aegypti NPYLR7 receptor. AID 1259423. HEK293T NPYLR7/Galpha15, GCaMP6s calcium fluorescence. activation, % at 10 µM. 0.15% of 270,000 active; in the data active = activation above about 40%;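 also: 0% = vehicle and 100% = reference agonist at the receptor; some compounds past the cut are filed as inactive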
# NPYLR7 ag max-min = further read-out of NPYLR7 ag, marked with its call; activation, %; measured here: Max-Min RFU normalised activation; some inactives read as strong as hits;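 span of the calcium signal over five minutes; 0% = vehicle and 100% = native peptide agonist; compound fluorescence can raise it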
# Starred values were filed as active, the others as inactive; & = joins results of further samples. Only part of the results is shown, so the mix of outcomes need not match the whole.
SMILES,NPYLR7 ag,NPYLR7 ag max-min
CN(Cc1ccccc1)C(=O)c1nc2ccccn2c1CNCCCc1ccccc1,-7,-13
CCCCNC(=O)COC(=O)c1ccc(N)c([N+](=O)[O-])c1,1,-2
C#CCOCC(O)CN(Cc1ccc2c(c1)OCO2)Cc1cccc(OC)c1OC (configuration not stated),29,28
O=C(c1cccs1)N(Cc1nccn1Cc1ccc(Cl)c(Cl)c1)CC1CC1,7,8
Cc1ccc(N2CCn3c2nn(CC(=O)N2CCCC2)c(=O)c3=O)cc1,11,7
c1ccc(O[C@H]2CN(c3ccccn3)[C@H]3Cc4c([nH]c5ccccc45)[C@@H]2C3)nc1,35,33
COc1ccc(N2CCN(c3cc(C(C)(C)C)nc(SCc4cccc(C(=O)NC5CC5)c4)n3)CC2)cc1,6,14
Cc1ccccc1-c1noc(CCC(=O)NC(C)c2cn3ccsc3n2)n1 (configuration not stated),2,-4
O=C(c1cccs1)N1CCN(S(=O)(=O)c2ccc3c(c2)OCCCO3)CC1,3,3
COCCCN(Cc1cccn1Cc1cccc(F)c1)C(=O)c1ccc(C(C)(C)C)cc1,19,22
Cc1[nH]nc(CCC(=O)N2CC(c3cccnc3)C2)c1C,8,18
COCc1nc(-c2cccc(CN3CCN(C(=O)c4cccc(C(C)C#N)c4)CC3)c2)no1 (configuration not stated),5,15
COc1cccc(NC(=O)N2CCSC2c2ccc(C(C)(C)C)cc2)c1 (configuration not stated),-3,3
O=S(=O)(NCc1ccc2c(c1)OCO2)c1ccc(-c2ccccc2)cc1,2,6
CCCC(=O)N1CCC(N2CCC(Cc3cccc(C(=O)O)c3)C2)CC1 (configuration not stated),7,1

# Entries from the list above that have a thiophene ring, fused or not (two):
SMILES,NPYLR7 ag,NPYLR7 ag max-min
O=C(c1cccs1)N(Cc1nccn1Cc1ccc(Cl)c(Cl)c1)CC1CC1,7,8
O=C(c1cccs1)N1CCN(S(=O)(=O)c2ccc3c(c2)OCCCO3)CC1,3,3

# By substructure: the compounds so far containing sulfur.
SMILES,NPYLR7 ag,NPYLR7 ag max-min
O=C(c1cccs1)N(Cc1nccn1Cc1ccc(Cl)c(Cl)c1)CC1CC1,7,8
COc1ccc(N2CCN(c3cc(C(C)(C)C)nc(SCc4cccc(C(=O)NC5CC5)c4)n3)CC2)cc1,6,14
Cc1ccccc1-c1noc(CCC(=O)NC(C)c2cn3ccsc3n2)n1 (configuration not stated),2,-4
O=C(c1cccs1)N1CCN(S(=O)(=O)c2ccc3c(c2)OCCCO3)CC1,3,3
COc1cccc(NC(=O)N2CCSC2c2ccc(C(C)(C)C)cc2)c1 (configuration not stated),-3,3
O=S(=O)(NCc1ccc2c(c1)OCO2)c1ccc(-c2ccccc2)cc1,2,6

# Going on with the list:
SMILES,NPYLR7 ag,NPYLR7 ag max-min
CS(=O)(=O)c1ccc(C(=O)C=Cc2cccs2)cc1,0,6
COc1ccc(C(=O)N2CCCC(OCc3cccc(C(F)(F)F)c3)C2)cc1 (configuration not stated),-4,3
COc1ccc(CCNC(=O)c2cccnc2N2CCN(C(=O)CCCOc3ccccc3)CC2)cc1OC,20,13
CS(=O)(=O)c1ccc(C(=O)Nc2ccc(Oc3cnccn3)cc2)cc1,-3,-6
Brc1ccc(-c2cnc(-c3ccccc3)o2)cc1,8,17
COCCNC(=O)c1c(N)n(/N=C\c2ccc(C)cc2)c2nc3ccccc3nc12,-1,-6
CCCC(C)NC(=O)COC(=O)Cc1ccc(-c2ccccc2)cc1 (configuration not stated),-3,-6
O=C(COc1ccccc1)NCc1nnc(SCC(=O)Nc2ccccc2F)n1-c1ccc(F)cc1,-5,0
O=C(NCc1ccccc1)c1coc(Br)c1,1,-1
COc1ccccc1NS(=O)(=O)c1c(N)n(C)c(=O)n(C)c1=O,0,-3
CC(C)N(Cc1cccc(OS(C)(=O)=O)c1)C(=O)Nc1ccc(F)c(Cl)c1,10,6
C=CCN(Cc1ccccn1)C(=O)CC(=O)Nc1cc(C)ccc1C,-2,-4
C=CCn1c(SCC(=O)Nc2ccc(C(=O)OC)cc2)nc2sc3c(c2c1=O)CCC3,-6,-8
Cc1ccc(C2C(C(=O)c3cccs3)=C(O)C(=O)N2CCN(C)C)o1 (configuration not stated),2,2
CSCc1nc2scc(-c3cccs3)c2c(=O)[nH]1,10,19

# Individual results from the list.
# Entry of C=CCn1c(SCC(=O)Nc2ccc(C(=O)OC)cc2)nc2sc3c(c2c1=O)CCC3 in NPYLR7 ag: -6
# Entry of COc1ccc(CCNC(=O)c2cccnc2N2CCN(C(=O)CCCOc3ccccc3)CC2)cc1OC in NPYLR7 ag max-min: 13
# Entry of O=C(COc1ccccc1)NCc1nnc(SCC(=O)Nc2ccccc2F)n1-c1ccc(F)cc1 in NPYLR7 ag max-min: 0
# Entry of CCCC(C)NC(=O)COC(=O)Cc1ccc(-c2ccccc2)cc1 (configuration not stated) in NPYLR7 ag max-min: -6
# Entry of COc1ccccc1NS(=O)(=O)c1c(N)n(C)c(=O)n(C)c1=O in NPYLR7 ag: 0
# Entry of CS(=O)(=O)c1ccc(C(=O)C=Cc2cccs2)cc1 in NPYLR7 ag max-min: 6
# Entry of C=CCN(Cc1ccccn1)C(=O)CC(=O)Nc1cc(C)ccc1C in NPYLR7 ag: -2

# Single records, as listed above. Order of screens: NPYLR7 ag | NPYLR7 ag max-min
# COc1ccc(CCNC(=O)c2cccnc2N2CCN(C(=O)CCCOc3ccccc3)CC2)cc1OC as listed: 20 | 13
# CS(=O)(=O)c1ccc(C(=O)C=Cc2cccs2)cc1 as listed: 0 | 6

# Continuation:
SMILES,NPYLR7 ag,NPYLR7 ag max-min
COC(=O)c1c(C)c(C(=O)C(C)N(Cc2ccco2)C(=O)Nc2c(C)cccc2C)c(C)n1C (configuration not stated),-7,-4
CC(Oc1cccc(N2CCCC2=O)c1)C(=O)N1CCC(Cc2ccccc2)CC1 (configuration not stated),3,1
CCOC(=O)c1nn(-c2ccccc2C)c(=O)cc1OCC(=O)N1CCN(c2ccccc2)CC1,12,7
O=C(c1cnn(Cc2ccccc2)c1)N1CC=CCC1,13,10
Cc1cccc(C(=O)NCC(c2ccc3c(c2)CCN3C)N2CCN(C)CC2)c1 (configuration not stated),6,1
Cc1nc(SCCO)c2c3c(sc2n1)CCC3,-1,-2
O=C(NC1CCCc2c1cnn2-c1ccc(F)cc1F)c1ccccn1 (configuration not stated),15,8
Cc1ccc(C(=O)Oc2coc(CSc3nc(C)cs3)cc2=O)cc1,18,9
COC(=O)c1cc2n(n1)CCCN(C1CCN(S(C)(=O)=O)CC1)C2,5,5
O=C(CCc1c[nH]c2ccccc12)NCc1cc(-c2cccnc2)no1,11,-7
Cc1cccc(C(=O)Nc2ccc(Nc3cc(-n4cccn4)nc(C)n3)cc2)c1,-4,-11
S=c1ccss1,0,-6
COCCN(CC(=O)N1CC(=O)N(c2ccc(Cl)cc2)C1)C(=O)C(C)(C)CCl,20,29
Cc1cc(CC(C)Nc2nc(-c3cccnc3)nc3c2cnn3C)n[nH]1 (configuration not stated),15,9
CCCc1nnc(NC2CCCN(C(=O)OC)C2)s1 (configuration not stated),8,4
Cc1cccn2c(=O)nc(SCC(=O)N3CCN(c4ccccc4)CC3)nc12,14,14
OCc1csc(-c2cccc(C(F)(F)F)c2)n1,1,1
CC1CCC(C(C)C)C(OC(=O)CSc2nc(-c3ccccc3)c(C#N)c(=O)[nH]2)C1 (configuration not stated),-13,-16
Cc1ccc(C)c(OCC(=O)N[C@@H](CC(C)C)C(N)=O)c1C,0,-8
O=C(NC(=S)N1CCOCC1)c1cccc([N+](=O)[O-])c1,-4,-4
CN1CCCc2cc(NC(=O)CSCc3ccccn3)ccc21,10,10
O=C1N=C(N2CCN(c3cccc(C(F)(F)F)c3)CC2)S/C1=C/c1cccs1,4,6
CC(=O)c1cc(-c2ccccc2CN2CCOCC2)ccc1O,6,5
CN(C)CCCN1CC(C(=O)O)CC1=O (configuration not stated),1,5
O=C(CN1C(=O)C2C3C=CC(C3)C2C1=O)NCC(c1ccco1)N1CCCCC1 (configuration not stated),-1,-2
CCOc1ccccc1CNC(=O)CCc1ccc(-c2ccc(Cl)cc2)n1-c1ccc(OC)cc1,2,0
CCOC(=O)CSc1nnc(NC(=O)c2cc(OC)c(OC)c(OC)c2)s1,0,5
Cc1cc(-c2nnc(NC(=O)CCCS(=O)(=O)c3ccccc3)o2)nn1C,-6,-12
C[C@]12C[C@H](O)[C@H]3[C@@H](CCC4=CC(=O)CC[C@@]43C)[C@@H]1CC[C@@H]2C(=O)CO,-3&-4&7,-3&-11&-7
CCOC(=O)CCc1c(C)nc2ncnn2c1N1CCN(C(=O)Nc2ccc(C(C)=O)cc2)CC1,0,-3
CN(C(=O)c1cc2ccc(C(C)(C)C)cc2[nH]1)C1(C#N)CCC1,4,1
c1ccc(-n2nnc3c(SCc4cccnc4)ncnc32)cc1,-3,11
CCCCCC(=O)Nc1cccc2ccccc12,9,7
CCOC(=O)c1nc2cc(Cl)c(Cl)cc2nc1N1CCCN(S(=O)(=O)Cc2ccccc2)CC1,5,4
COCCC(=O)Nc1ccc2c(c1)CN(C(=O)c1cc3c(s1)CCCCC3)CC2,16&2,7&2
Cc1nnc(NC(=O)CSc2ccc(-c3sc(-c4cccnc4)nc3C)nn2)s1,4,2
CCc1nc2c(Oc3nc4ccccc4s3)cccn2c1N(C=O)Cc1ccccc1,-3,-8
CC(C)(NC(=O)CCc1cccs1)c1ccc(Br)cc1,1,1
Cc1c(NC(=O)N2CCSCC2)cccc1OCC(F)(F)F,6,4
O=C(CN1CCN(c2ccc(F)cc2)CC1)Nc1cc(F)ccc1F,-5,-5
CCN1CCN(C(=O)c2cnc(-c3cccc(C)c3)nc2N2CCc3ccccc3C2)CC1,-2,-1
c1cc(-c2nc3cc(Oc4ccc5oc(-c6ccncc6)nc5c4)ccc3o2)ccn1,-2,-5
CCOC(=O)C1=C(C)N=c2s/c(=C\c3ccccc3OC)c(=O)n2C1c1ccc(OC(C)=O)cc1 (configuration not stated),0,-5
CCOC(=O)c1c(NC(=O)c2ccccc2Cl)sc2c1CCC2,-5,-11
CN1CCN(S(=O)(=O)c2ccc(F)c(F)c2F)CC1,-3,-4
Cc1c(C(C)NC(=O)c2ccsc2)cnn1-c1cccc2ccccc12 (configuration not stated),9,4
CCOc1ccccc1C(=O)NCCc1cc2cc(C)c(C)cc2[nH]c1=O,1,33
CC(C)c1nc2c(OCc3ccccc3)cccn2c1NC(C)(C)CC(C)(C)C,29,27
Cc1oc(-c2cc3c(cc2Cl)OCO3)nc1CN1CCCCC1c1nccn1C (configuration not stated),4,-4
C=CCN(Cc1csc(COc2ccccc2C(C)C)n1)C(=O)C1CCCC1,1,9
COc1cc(-c2c(C#N)c(N)nc3c2c(C)nn3-c2ccc(C)cc2)ccc1O,1,1
Cc1ccc(-c2cnc(CCC(=O)N3CCCCCC3C3CCCCC3=O)o2)cc1 (configuration not stated),2,-1
Cc1ccc(-c2csc(N)n2)o1,0,6
C[C@](N)(Cc1ccccc1)C(=O)N1CCC(N2CCSCC2)CC1,-2,-2
C=C(C)Cn1c(=O)c2c(nc3n(-c4ccccc4F)c(C)c(C)n23)n(C)c1=O,13,6
CCCCCCNC(=O)Cc1csc(NC(=O)CN(C(=O)c2ccco2)C(C)C)n1,18,19
Clc1ccccc1-c1nc2c(NCc3ccccn3)nccc2[nH]1,-4,-7
Cc1cc(NC(=O)N2CCN(C)CC2C)n(-c2ccccn2)n1 (configuration not stated),-3,-5
COc1ccc(-c2cnc3ncnn3c2N2CCCN(S(=O)(=O)c3c(C)noc3C)CC2)cc1OC,27,23
O=P(O)(O)C(O)(Cn1ccnc1)P(=O)(O)O,-8,-15

# Next structures
SMILES,NPYLR7 ag,NPYLR7 ag max-min
CC(C)c1ccc(C=NN2CCN(Cc3ccccc3)CC2)cc1,14,4
COC(=O)c1csc(CN(C(=O)COCc2ccccc2)C2CCCCC2)n1,-9,-19
Cc1sc(NC(=O)CSc2cn[nH]n2)c(C)c1C,0,15
Cc1ccsc1-c1nccn1CCc1n[nH]c(=O)[nH]1,0,-3
CCN1C(=O)NC(c2ccc(Cl)cc2Cl)C2=C1CN(CC(=O)NCCCN1CCCC1=O)C2=O (configuration not stated),-1,9
CC1CC(NC(=O)c2cccc(F)c2F)CCN1Cc1ccccc1 (configuration not stated),8,3
CCOC(=O)C1(CC2CCCCO2)CCN(C(=O)c2ccc3c(c2)OCCO3)CC1 (configuration not stated),2,-4
CCc1csc(CNC2CCC3(CCNCC3)CC2)n1,-5,-4
Cc1ccc2nc(SCC(=O)c3ccccc3)nc(=O)n2c1,2,3
N[C@@H]1CC[C@@H](NC(=O)c2cc(C(F)(F)F)[nH]n2)C1,7,6
CC1CCCN(S(=O)(=O)c2ccc3c(c2)nc(SCc2cccc(C(=O)O)c2)n3CC2CCCO2)C1 (configuration not stated),5,2
Cc1cc(Nc2ccc3c(n2)C(=O)N(CC(=O)NC2CCC(O)CC2)C3)n(C)n1 (configuration not stated),5,1
CN(CCNC(=O)c1csc2c1CCCC2)C1CCCCC1,2,0
COc1ccccc1N1CC(C)Cn2c1nc1c2c(=O)[nH]c(=O)n1C (configuration not stated),32,18
CCn1c(=O)c2c(nc3n(-c4cc(C)cc(C)c4)c(C)c(C)n23)n(C)c1=O,6,5
CCOC(=O)C1CCN(CC(=O)N2N=C(c3ccccc3F)CC2c2ccc(C)cc2C)CC1 (configuration not stated),10,16
CCC(CC)C(=O)NC[C@H]1O[C@@H](CC(=O)NC(C)C)[C@H](O)[C@@H]1O,-3,-13
CCOC(=O)Cn1nc(C)c([N+](=O)[O-])c1C,4,3
Oc1oc(-c2ccc(Br)cc2)nc1C=Nc1cc(Cl)ccc1Cl,-1,-6
Cc1cc(C)cc(OCc2nc(CN(C(=O)C3CCCC3)C(C)C)cs2)c1,23,19
Cc1nn(-c2ccc(C(F)(F)F)cc2)c(C)c1[C@@H]1C=C[C@@H](NCc2ccc(N(C)C)cc2)C1,0,-8
